# Bioassay records from PubChem.
# VCAM-1 down imaging = suppression of endothelial VCAM-1 upregulation – imaging, high-content imaging, pooled HUVEC, TNFa stimulus (AID 456) | HUVEC TNFa-induced VCAM-1 surface expression, immunofluorescence imaging; numbers were filed only for top-ranked candidate wells | inhibition, % at 5 µM, or IC50 in µM where a hit was titrated | actives 0.2% (n = 10,000);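 active = top tenth filtered wells with inhibition above zero that passed visual or statistical confirmation; inactive = the rest, including hits rejected on review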;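 note: 0% = stimulated vehicle wells and 100% = unstimulated cells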
# VCAM-1 down = inhibitors of TNFa-induced VCAM-1 surface display, cell-based, plate reader, pooled HUVEC, TNFa stimulus (AID 454); HUVEC TNFa-induced VCAM-1 surface immunofluorescence, plate reader; numbers were filed only for top-ranked candidate wells; inhibition, % at 5 µM; actives 0.2% (n = 10,000);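 active = compound among top-ranked inhibitors of TNF-induced VCAM-1 adhesion protein staining, with the hit upheld by image or statistical review; inactive = the rest, including hits rejected on review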;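 note: 0% = TNFa with vehicle and 100% = cells without TNFa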
# VCAM-1 augmentation = boosters of cytokine-driven VCAM-1 levels – imaging, high-content imaging, pooled HUVEC, TNFa stimulus (AID 457); Pooled HUVEC, TNFa-induced VCAM-1 immunofluorescence imaging; hits of this screen are not shown here; calls only; actives 0.2% (n = 10,000);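 active = a top-ranked rise in VCAM-1 staining upheld on image or statistical review; inactive = the rest, including candidates rejected on review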;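 note: compounds tested at 5 µM in the well; cells exposed to compound for 24 hours before fixing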
# FPRL1 ligand = binds the human formylpeptide receptor-like-1 FPRL1. actives 0.3% (n = 24,000). inhibition, %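 (tested at 6.7 µM)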. FPRL1-expressing cells, fluorescent ligand binding inhibition, flow cytometry. P25090;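 note: 0% = buffer alone and 100% = receptor blocker peptide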
# Target sequence (P25090 whole entry, looked up): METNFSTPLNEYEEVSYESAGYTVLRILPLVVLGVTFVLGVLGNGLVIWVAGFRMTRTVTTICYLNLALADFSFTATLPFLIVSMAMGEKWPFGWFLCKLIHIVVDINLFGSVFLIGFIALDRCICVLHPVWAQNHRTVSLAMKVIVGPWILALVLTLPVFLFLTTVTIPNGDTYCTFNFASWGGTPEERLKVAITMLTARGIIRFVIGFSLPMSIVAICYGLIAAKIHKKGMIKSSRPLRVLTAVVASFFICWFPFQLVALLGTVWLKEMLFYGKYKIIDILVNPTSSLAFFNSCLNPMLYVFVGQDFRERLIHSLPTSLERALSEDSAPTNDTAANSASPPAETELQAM
# FPR ligand = binds the human formylpeptide receptor FPR. AID 440. FPR-expressing cells, fluorescent ligand binding, flow cytometry. inhibition, %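 (tested at 6.7 µM)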. actives 0.74% (n = 24,000);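 note: 0% = buffer wells and 100% = receptor blocker peptide wells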
# An asterisk follows results filed as active; i = inactive; & = joins results of further samples.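 Rule for the calls, unless noted: active = mean above 30%; inconclusive = self-fluorescent; inactive = the rest.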 An excerpt. The share of hits here may be higher or lower than overall.
No. | Compound | VCAM-1 down imaging | VCAM-1 down | VCAM-1 augmentation
1 | CN(C)CCCC1(c2ccc(F)cc2)OCc2cc(C#N)ccc21 (stereo unspecified) | i | i | i
2 | C1COC(NC(C2CC2)C2CC2)=N1 | i | i | i
3 | CNCCCN1c2ccccc2CCc2ccccc21 | i | i | i
4 | Cc1ccc(N(CC2=NCCN2)c2cccc(O)c2)cc1 | i | i | i
5 | CCCCCC(=O)O[C@]1(C(C)=O)CC[C@H]2[C@@H]3CCC4=CC(=O)CC[C@]4(C)[C@H]3CC[C@@]21C | 70.6% | i | i
6 | CCn1cc(C(=O)O)c(=O)c2cnc(N3CCNCC3)nc21 | i | i | i
7 | O=C(O)c1cccnc1Nc1cccc(C(F)(F)F)c1 | i | i | i
8 | COc1ccc(C2CNC(=O)C2)cc1OC1CCCC1 (stereo unspecified) | i | i | i
9 | CN1CCCN=C1COC(=O)C(O)(c1ccccc1)C1CCCCC1 (stereo unspecified) | i | i | i
10 | CCC(NC(C)C)C(O)c1ccc(O)c2[nH]c(=O)ccc12 (stereo unspecified) | i | i | i
11 | CC1Cc2ccccc2N1NC(=O)c1ccc(Cl)c(S(N)(=O)=O)c1 (stereo unspecified) | i | i | i

No. | FPRL1 ligand | FPR ligand
1 | 3.7 | -2.1
2 | 3.2 | -3.6
3 | -2.3 | -1.3
4 | 1.2&3.0 | -3.7&-5.2
5 | -6.9 | 0.8
6 | 0.0 | -1.9
7 | -2.9 | 2.2
8 | 2.6 | -2.2
9 | 6.5 | 4.4
10 | 14.1 | 4.2
11 | 2.5 | -7.9

# In the list so far, these have fluorine.
No. | Compound | VCAM-1 down imaging | VCAM-1 down | VCAM-1 augmentation
1 | CN(C)CCCC1(c2ccc(F)cc2)OCc2cc(C#N)ccc21 (stereo unspecified) | i | i | i
7 | O=C(O)c1cccnc1Nc1cccc(C(F)(F)F)c1 | i | i | i

No. | FPRL1 ligand | FPR ligand
1 | 3.7 | -2.1
7 | -2.9 | 2.2

# Fetched by structure from the entries so far, three records:
No. | Compound | VCAM-1 down imaging | VCAM-1 down | VCAM-1 augmentation
2 | C1COC(NC(C2CC2)C2CC2)=N1 | i | i | i
10 | CCC(NC(C)C)C(O)c1ccc(O)c2[nH]c(=O)ccc12 (stereo unspecified) | i | i | i
11 | CC1Cc2ccccc2N1NC(=O)c1ccc(Cl)c(S(N)(=O)=O)c1 (stereo unspecified) | i | i | i

No. | FPRL1 ligand | FPR ligand
2 | 3.2 | -3.6
10 | 14.1 | 4.2
11 | 2.5 | -7.9
